From PubChem BioAssay
Measles inh = inhibitors of measles virus growth in infected cells. z-score (test concentration not listed). AID 745. actives 0.1% (n = 33,000). infected Vero cells, GFP fluorescence, 64 h; hits give low values;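 active means z-score under -3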;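 further: score is relative to mean and SD of the compound wells of a plate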
Numbers without * were called inactive.

Structure | Measles inh
O=[N+]([O-])c1ccc(-c2nc3ccccc3nc2-c2ccccc2)cc1 | 0.3
Cc1ccc(-n2nc3c(c2NC(=O)Cc2ccccc2)CS(=O)(=O)C3)cc1 | 0
O=C(Nc1cccc(C(F)(F)F)c1)C1CCCN(S(=O)(=O)c2cccc3nsnc23)C1 (configuration not stated) | 0.77
CC(=O)c1ccc(NC(=O)CSc2nc3ccc(NC(=O)c4ccccc4C)cc3s2)cc1 | -0.01
COC(=O)c1ccc(C(=O)Nc2ccc(CC#N)cc2)cc1 | -0.28
CC(C)(C)C1CCc2onc(C(=O)NCc3ccc(Cl)cc3)c2C1 (configuration not stated) | -1.2
COC(=O)c1cc(N2C(=O)C3C(C2=O)C2(C)C=CC3(C)O2)ccc1Cl (configuration not stated) | -1.2
O=C(C1CCN(S(=O)(=O)N2CCOCC2)CC1)N1CCN(c2ccccc2)CC1 | -0.69
O=S(=O)(c1ccc(F)cc1)N1CCN(C2CCCC2)CC1 | -1.2
CCOC(=O)C1=C(c2ccccc2)NC(=S)NC1c1cc(OC)c(OC)cc1Cl (configuration not stated) | 0.54
CCOc1ccc(C2NC(=O)NC(C)=C2C(=O)OC(C)C)cc1 (configuration not stated) | 0.27
CCOC(=O)c1c(C)oc2c1cc(NS(=O)(=O)c1ccc(C)c([N+](=O)[O-])c1)c1ccccc12 | -0.13
CSc1nc(N)nc(SCC(=O)c2ccc(C)cc2)c1C#N | -0.16
COCCNC(=O)c1cc(-c2ccncc2)nc2ccc(S(=O)(=O)N3CCC(C)CC3)cc12 | -0.66
CCOC(=O)c1cnc2ccc(C(=O)OC)cc2c1Nc1cccc(C(=O)OC)c1 | -0.89
CC1=CN2C(=NC(=O)CC2(C)C(=O)O)C=C1 (configuration not stated) | -0.35
Nc1ccccc1-c1nc2ccccc2[nH]1 | -0.85
O=C(Nc1ccccc1O)c1cc(S(=O)(=O)N2CCCC2)ccc1Cl | -0.15
Cc1cc2ncn(C(=O)c3ccco3)c2cc1C | -0.48
O=C(O)c1cc(N2Cc3ccccc3C2)ccc1O | -0.05
Brc1ccc(-c2nc3ccccn3c2Nc2ccc3c(c2)OCCO3)o1 | 2.2
Cc1nc(-c2ccccc2)sc1C(=O)Nc1ccc(-c2cn3ccccc3n2)cc1 | -0.2
COC(=O)c1cc(C(=O)Nc2cccc(OC)c2)cc([N+](=O)[O-])c1 | -1.9
Cc1ccc(C=Nc2ccccc2C(=O)O)o1 | 2.9
Cc1cc2nc(-c3cccc(NC(=O)c4cccc5ccccc45)c3)oc2cc1C | 0.08
Cc1ccc(S(=O)(=O)N2CCC(C(=O)NC3CC3)CC2)cc1 | 2.6
Brc1ccc(-c2noc(-c3cccc(Br)c3)n2)cc1 | 0.81
CCOc1ccc(Nc2nc(C)[nH]c2[N+](=O)[O-])cc1 | -0.6
COc1cc(C=Nc2c(C)n(C)n(-c3ccccc3)c2=O)ccc1OC(C)=O | 2.3
CCCCOc1ccc2c(=O)c(-c3ccccc3OC)coc2c1 | 0.95
COc1cc(C(=O)Nc2ccc(-c3nc4ccccc4[nH]3)cc2)cc(OC)c1OC | 0.59
Cc1ccc(Cn2c(=S)[nH]c3ncccc3c2=O)cc1 | 0.65
COC(=O)C1=CN(C)C=C(C(=O)OC)C1c1ccc2c(c1)OCO2 | 0.49
O=C(CN1N=C(c2ccccc2)CCC1=O)N1CCC(Cc2ccccc2)CC1 | 0.09
CCOC(=O)c1c(N)n(-c2ccc(OC)c(OC)c2)c2nc3ccccc3nc12 | -0.6
CCCCOc1ccc(-c2nc3ncccn3c2NC2CCCC2)cc1 | -0.7
O=C(Nc1nccs1)c1cccc(Br)c1 | -0.28
Cc1ccc(CNC(=O)CCCCCn2c(=O)[nH]c3ccccc3c2=O)o1 | -0.12
CCCOc1ccc(/C(O)=C2\C(=O)C(=O)N(Cc3cccnc3)C2c2ccccc2F)c(C)c1 (configuration not stated) | -0.6
Cc1ccc(C2N3CC4(C(C)C)CN2CC(C(C)C)(C3)C4=O)cc1 (configuration not stated) | -0.19
Cc1ccc(OCCn2c(-c3ccc(Cl)cc3)nc3ccccc3c2=O)cc1C | -0.35
Cc1[nH]c2ccccc2c(=O)c1CN(C)Cc1ccccc1 | -1.1
Cc1ccc(S(=O)(=O)NC(=NCC(=O)O)c2ccc(F)cc2)cc1 | 1.1
CCOC(=O)c1cnc2ccc(OC)cc2c1Nc1ccc(OC(F)(F)F)cc1 | -0.66
Fc1ccc(C2C=C(c3cccs3)Nc3nnnn32)cc1 (configuration not stated) | 3.4
ClC(=Cc1ccccc1)c1nc2ccccn2c1Nc1ccc2c(c1)OCCO2 | -0.54
O=C(NCC1CCCO1)c1ccc(F)c2ccccc12 (configuration not stated) | -0.02
COc1cc(OC)cc(-n2c(=O)c3ccccc3n(CC(=O)NCCC3=CCCCC3)c2=O)c1 | -1.3
COc1ccc(C=Nc2nc3ccccc3n2CCN2CCCCC2)cc1 | -0.13
O=c1c2cc3c(cc2nc(SCc2cccc(F)c2)n1Cc1ccco1)OCO3 | -0.65
COc1cccc(C(=O)COc2ccccc2N2C(=O)C3CCC(C)CC3C2=O)c1 (configuration not stated) | 0.37
Cc1ccc(CC2C(=O)N(c3ncccn3)C(=O)C2C)cc1 (configuration not stated) | -0.33
CC(CC1CC(C)(C)OC1=O)C(=O)Nc1nncs1 (configuration not stated) | -1
CCC(=Cc1ccccc1)CN1CCCCC1 | 1
Cc1sc2ncnc(SCC(=O)NCc3ccco3)c2c1C | -0.19
NC(=O)CSC1=Nc2ccccc2C2=NC(CCC(=O)NCc3ccc4c(c3)OCO4)C(=O)N12 (configuration not stated) | 1.2
O=C(Nc1ccncc1)c1ccccc1Br | -0.73
CC1=NN(C(=O)CCc2ccccc2)C(O)(c2ccccc2)C1 (configuration not stated) | 1
COc1ccc(C(=O)COC(=O)C2C3CCC(C3)C2C(=O)c2ccccc2)cc1 (configuration not stated) | 0.73
COc1ccc(C=Nc2ccc(C)c(C)c2)cc1O | -0.41

Remaining list, next part.
Structure | Measles inh
O=C(C1CC1)N1CCN=C1SCc1cccc(C(F)(F)F)c1 | -0.82
CCC(C)Nc1nc2c(c(=O)[nH]c(=O)n2C)n1Cc1cccc(C)c1 (configuration not stated) | -0.12
CC(=O)NC(CCS(C)(=O)=O)C(=O)Nc1ccc(C)c(F)c1 (configuration not stated) | 1.6
Cn1c(=O)cc(SCC(=O)N2CCOCC2)c2ccccc21 | -0.27
COc1ccc(N2CCN(C(=O)N3CCOCC3)CC2)cc1 | -0.18
Cc1cc2c(c(N)n1)C(=O)NC2=O | -1.1
Cc1ccc(N2C(=O)CC(N3CCN(c4nc5ccccc5s4)CC3)C2=O)c(C)c1 (configuration not stated) | 0.13
CC(=O)Nc1ccc(N=Cc2ccc(N(C)C)c([N+](=O)[O-])c2)cc1 | -0.03
O=c1ccsn1Cc1ccccc1 | -1.1
CC1CCN(S(=O)(=O)N2CCC(C(=O)NCc3cccs3)CC2)CC1 | 0.7
Cc1c(NC(=O)C2c3ccccc3C(=O)N(C)C2c2cn(C)c3ccccc23)cccc1[N+](=O)[O-] (configuration not stated) | 0.29
O=c1[nH]c2ccccc2nc1C(=S)N1CCOCC1 | 0.26
O=C(Nc1cccc2ccccc12)c1cccc([N+](=O)[O-])c1 | 1.8
O=C(CSCc1ccc(F)cc1)NCc1ccco1 | -0.82
COc1ccccc1CNC(=O)CCc1nc(-c2ccc(C)cc2)no1 | -1.5
O=c1oc(C=Cc2cccc([N+](=O)[O-])c2)nc2ccc(Br)cc12 | 0.04
Cc1ccc(N2C(=O)Nc3ccc(Br)cc3C2(O)C(=O)NCc2ccc(F)cc2)cc1C (configuration not stated) | -0.25
CCOC(=O)c1ccccc1Nc1nc(-c2ccccc2F)nc2ccccc12 | 1.2
CC(=O)C1=NN(c2ccccc2)C(C#CC(C)(C)C)N1c1ccccc1 (configuration not stated) | -1.6
CCOc1ccc2nc(SCC(=O)NC3CC3)sc2c1 | 0.45
COc1cc(C2Oc3ccccc3C3CC(c4ccccc4)=NN32)cc(OC)c1OC (configuration not stated) | 0
Cc1ccc(N(CC(O)CN(C)C)S(=O)(=O)c2ccc(C)cc2)cc1 (configuration not stated) | 0.86
Cc1ccc(-n2nc(C(=O)NC3CCN(Cc4ccccc4)CC3)c3c4ccccc4n(C)c3c2=O)cc1 | -0.83
COCCCN1C(=S)NC2c3cccc(OC)c3OC1(C)C2C(=O)Nc1ccc(Cl)cc1 (configuration not stated) | -0.4
N#Cc1c(N2CCCCC2)ncc2c(=O)c3ccccc3[nH]c12 | 0.78
Cc1cccc(OCC(=O)N2CCCc3ccccc32)c1 | -0.21
Cc1ccc(C)c(Cc2c(C)nc3c(C(=O)NCC4CCCO4)cnn3c2C)c1 (configuration not stated) | -0.18
COc1ccc(C(=O)Nc2ccc(NC(=O)C(=O)O)cc2)cc1OC | -0.51
CC(=O)N1CCc2c(sc(NC(=O)c3ccc(S(=O)(=O)N4CCCCCC4)cc3)c2C(N)=O)C1 | -0.33
CCc1ccc(C2Nc3ccc4ncccc4c3C3=C2C(=O)CCC3)cc1 (configuration not stated) | -0.18
CCOC(=O)C1=CN(c2cc(C)cc(C)c2)C=C(C(=O)OCC)C1c1cccc(F)c1 | 0.38
CSc1nnc2c(n1)OC(c1cn(C)c3ccccc13)N(C(C)=O)c1ccccc1-2 (configuration not stated) | 0.77
CCc1ccc(-c2csc(Nc3ccc(S(=O)(=O)Nc4cc(OC)nc(OC)n4)cc3)n2)cc1 | -0.67
O=c1c2ccccc2n(Cc2cccc(Cl)c2)c(=O)n1C1CCCCC1 | -0.02
COc1ccc(-c2nc3n(n2)C(=O)CC(c2cc(OC)c(OC)c(OC)c2)S3)cc1 (configuration not stated) | 0.1
COc1ccccc1NC(=O)C1=C(C)NC2=C(C(=O)CC(c3ccc(OC)c(OC)c3)C2)C1c1ccc([N+](=O)[O-])cc1 (configuration not stated) | -0.62
O=[N+]([O-])c1cc(-c2ncnn2-c2ccc(Br)cc2)ccc1Cl | -1.9
CC(=O)N1c2ccccc2N(Cc2ccc([N+](=O)[O-])cc2)C(=O)C1(C)C | -0.16
COc1ccc(OC)c(NC(=O)C2=C(C)NC(=S)NC2c2ccc(O)cc2)c1 (configuration not stated) | -1.3
COc1ccc(C2=NC(c3ccc(F)cc3)NC(c3cc(Br)ccc3O)C2)cc1 (configuration not stated) | 2.3
Cc1c(Cl)c([N+](=O)[O-])nn1CCCC(=O)Nc1ccc([N+](=O)[O-])cc1Cl | -0.61
COc1ccc(/C(O)=C2\C(=O)C(=O)N(Cc3cccnc3)C2c2ccc(C(C)C)cc2)cc1 (configuration not stated) | 0.94
CCN(CC)CCCn1c(=S)[nH]c2ncccc2c1=O | -0.29
O=C1CN(C(=O)c2ccc(S(=O)(=O)N3CCOCC3)cc2)C(c2ccc(F)cc2)c2cc(Cl)ccc2N1 (configuration not stated) | 0.42
CCCCOC(=O)C1=C(C)NC2=C(C(=O)CC(C)(C)C2)C1c1ccc(OC)cc1 (configuration not stated) | -1.1

Part of the list above in order of SMILES length, falling:
Structure | Measles inh
COc1ccc(/C(O)=C2\C(=O)C(=O)N(Cc3cccnc3)C2c2ccc(C(C)C)cc2)cc1 (configuration not stated) | 0.94
Cc1c(Cl)c([N+](=O)[O-])nn1CCCC(=O)Nc1ccc([N+](=O)[O-])cc1Cl | -0.61
CCN(CC)CCCn1c(=S)[nH]c2ncccc2c1=O | -0.29

The list continues.
Structure | Measles inh
CCOc1ccc(C(=O)Nc2cccc(NC(=O)c3cccc(Cl)c3)c2)cc1[N+](=O)[O-] | 0.02
Cc1cc2nc3[nH]c4ccc(Br)cc4c3nc2cc1C | -0.85
O=C(O)c1ccc2c(c1)C(=O)N(c1ccc(Cl)c(C(=O)O)c1)C2=O | 0.53
O=C1C2CC=C(Cl)CC2C(=O)N1C1CCCCC1 (configuration not stated) | 0.79
CCOc1ccccc1NC(=O)CC1Sc2ccc(C(F)(F)F)cc2NC1=O (configuration not stated) | 0.02
CC(C)CCNC(=O)c1c[nH]n2c(=O)cc(CSc3ccc(Cl)cc3)nc12 | -1.7
CC(C)CCNc1ncnc2c1sc1nc(-c3ccco3)c3c(c12)CCCC3 | 1.6
Cc1ccccc1Nc1c(-c2ccsc2)nc2ccc(Br)cn12 | -0.57
Cc1ccc(C(=O)Oc2ccc(Oc3ncc(Cl)cc3Cl)cc2)cc1[N+](=O)[O-] | -0.54
Cc1c(Cl)cccc1-c1ccc(C(=O)Nc2cccc3nsnc23)o1 | -0.45
COc1ccc(C2c3sc(=O)[nH]c3SC3C(=O)N(c4ccc(C)cc4)C(=O)C32)cc1 (configuration not stated) | 0.11
N#CCC(=O)NCc1ccc(F)cc1 | -0.9
CCOc1ccc(NC(=O)c2ccc(C(C)(C)C)cc2)c([N+](=O)[O-])c1 | 1.6
O=C(c1ccccc1Br)N1N=C2CCCCC2C1(O)C(F)(F)F (configuration not stated) | 0.54
COc1ccc(C2C(C(=O)NC3CCCCCC3)c3ccccc3C(=O)N2C)cc1 (configuration not stated) | 0.64
COc1ccccc1NC(=O)c1c(NCc2cccnc2)sc2c1CCC2 | -0.82

Retrieved by structure from the entries so far (six):
Structure | Measles inh
COc1ccccc1NC(=O)c1c(NCc2cccnc2)sc2c1CCC2 | -0.82
N#CCC(=O)NCc1ccc(F)cc1 | -0.9
COc1ccc(C2C(C(=O)NC3CCCCCC3)c3ccccc3C(=O)N2C)cc1 (configuration not stated) | 0.64
Cc1cc2nc3[nH]c4ccc(Br)cc4c3nc2cc1C | -0.85
Cc1ccc(C(=O)Oc2ccc(Oc3ncc(Cl)cc3Cl)cc2)cc1[N+](=O)[O-] | -0.54
Cc1c(Cl)cccc1-c1ccc(C(=O)Nc2cccc3nsnc23)o1 | -0.45

Some of the compounds tested (hit frequency here may not be typical).
